D2 agonist – human D2 receptor agonism in beta-arrestin assay; P14416; DiscoveRx PathHunter D2 beta-arrestin, luminescence, 90 min; 100% = 57 uM dopamine signal; activation, % (test concentration not listed); 0.084% of 360,000 active; AID 624465; in the data active = activation above about 40%; inconclusive = about 15% to 40%; inactive = below about 15%; also: compound concentration not given in the record; the text of the record calls up to 30% inactive
Target sequence (P14416 whole entry, looked up): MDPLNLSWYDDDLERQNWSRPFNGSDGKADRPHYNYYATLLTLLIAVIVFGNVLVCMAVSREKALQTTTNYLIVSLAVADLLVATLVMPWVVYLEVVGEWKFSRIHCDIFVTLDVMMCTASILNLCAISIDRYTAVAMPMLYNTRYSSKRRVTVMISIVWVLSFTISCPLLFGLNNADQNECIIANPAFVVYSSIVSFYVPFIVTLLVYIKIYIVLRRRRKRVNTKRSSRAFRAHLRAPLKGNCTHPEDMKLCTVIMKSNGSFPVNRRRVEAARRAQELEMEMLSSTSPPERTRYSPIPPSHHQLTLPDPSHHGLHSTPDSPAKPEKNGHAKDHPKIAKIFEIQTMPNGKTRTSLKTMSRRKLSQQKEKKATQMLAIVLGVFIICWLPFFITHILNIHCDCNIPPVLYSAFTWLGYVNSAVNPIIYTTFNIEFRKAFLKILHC
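DiscoveRx PathHunter D2 beta-arrestin cells (2,100/well) attached overnight, then compound-stimulated 90 min at 37 C in HBSS/10 mM HEPES/0.1% Tween-20 buffer; beta-galactosidase complementation read by luminescence after 1 h at ambient temperature. Dopamine 57 uM final (EC100) as control.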
TRPML1 ag – agonists of human TRPML1 channel; Q9GZU1; TRPML1-expressing cells, Ca2+ dye fluorescence, FDSS; host cell line not named in the record; reference of the full effect not given here; activation, % (test concentration not listed); 0.12% of 410,000 active; AID 624414; in the data active = activation above about 50%; inconclusive = about 30% to 50%; inactive = below about 30%; also: 0% is about no effect; the text of the record puts the active cut at 80%
Target sequence (Q9GZU1 whole entry, looked up): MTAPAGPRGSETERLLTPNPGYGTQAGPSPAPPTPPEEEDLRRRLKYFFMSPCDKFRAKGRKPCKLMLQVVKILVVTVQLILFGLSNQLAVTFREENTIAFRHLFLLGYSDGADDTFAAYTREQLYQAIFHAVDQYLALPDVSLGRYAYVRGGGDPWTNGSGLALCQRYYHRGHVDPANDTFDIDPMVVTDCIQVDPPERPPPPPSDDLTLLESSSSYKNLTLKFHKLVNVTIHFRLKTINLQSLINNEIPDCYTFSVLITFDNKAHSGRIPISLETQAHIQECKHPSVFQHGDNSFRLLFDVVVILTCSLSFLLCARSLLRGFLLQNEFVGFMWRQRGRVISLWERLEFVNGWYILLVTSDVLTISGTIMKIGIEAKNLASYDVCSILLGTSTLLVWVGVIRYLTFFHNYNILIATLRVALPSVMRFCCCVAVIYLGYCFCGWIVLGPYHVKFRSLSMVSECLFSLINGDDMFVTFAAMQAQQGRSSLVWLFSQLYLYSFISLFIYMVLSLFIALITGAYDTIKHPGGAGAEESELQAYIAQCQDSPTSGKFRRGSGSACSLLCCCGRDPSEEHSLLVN
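Calcium fluorescence on an FDSS kinetic reader gave the read-out. Tet-induced TRPML1-DL cells were plated overnight, dye-loaded (Ca8 with quencher, 45-90 min, room temperature, dark), then read 110 s after compound addition, and again 110 s after 4uM final 54-4 (EC80).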
PINK1 modulator – PINK1 expression modulation. Potency, µM (series often up to 76.6 µM), for inactives: top-dose activation (PINK1 increase), hits mostly activators. 0.2% of 410,000 active. PINK1 immunofluorescence, high-content cytometry, 24 h; active = well fitted activation curve with a large enough effect; inconclusive = small, poorly fitted or top-dose-only effect; inactive = flat fitted curve, though single readings scatter; cell line not stated here;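 also: potency is read from the fitted curve at half-maximal effect; % of control where 0% means no effect; nearly all actives have a fitted effect of over 65% in size; a mitochondrial uncoupler was the plate control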
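Decision-based qHTS: stable cells, 24 h exposure to five compound concentrations, CCCP as control. Fixed cells stained for PINK1 plus nuclear, mitochondrial and cell markers, cytometer read.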
Six1-Eya2 blk – blocks human Six1 binding to Eya2; AlphaScreen GST-Six1/His-Eya2 binding, biochemical; active compounds read low; control for the full effect not named in the record; 0.56% of 360,000 active; AID 651725; Q15475+O00167; activity change, % (concentration not given with the values); in the data active = activity change below about -65%; inconclusive = about -30% to -65%; inactive = above about -30%; also: % is scaled to controls: 0 for no effect and ±100 for the full control effect
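Homogeneous AlphaScreen proximity assay pairing GST-Six1 with His-tagged Eya2 (added as 5X mix: 250 nM and 500 nM) in 50 mM Tris pH 8.0, 300 mM NaCl, 1 mM TCEP. Glutathione donor and nickel acceptor beads; 1 h, 37 °C, dark.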
D2 potentiator – positive allosteric modulators of human D2 dopamine receptor. P14416. 0.23% of 360,000 active. potentiation, % (concentration not given with the values). DiscoveRx D2 beta-arrestin cells, luminescence, 90 min; 100% = 57 uM dopamine signal; active = potentiation of 50% or more; inconclusive = 30% to 50%; inactive = 30% or less;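 also: compound concentration not given in the record; tested on top of an EC20 dose of dopamine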
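PathHunter D2 cells, attached overnight at 37 deg C, received compound in DMSO plus dopamine at EC20 (50 nM final) for 90 min at 37 deg C. Beta-arrestin recruitment was read as luminescence after 1 h with detection reagent at ambient temperature.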
CtBP-E1A blk – blocks the CtBP interaction with E1A; AID 651724; AlphaScreen GST-E1A/His-CtBP binding, 1536-well; active compounds read low; control for the full effect not named in the record; 0.49% of 340,000 active; activity change, % (concentration not given with the values); in the data active means activity change below about -65%; inconclusive means about -30% to -65%; inactive means above about -30%; also: % is scaled to controls: 0 for no effect and ±100 for the full control effect
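Homogeneous bead-based format: GST-tagged E1A captured on glutathione donor beads, His-tagged CtBP on nickel acceptor beads; compounds precede bead addition by 2 h at 37 °C.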
Active calls of the source: *; ? = inconclusive; · = no result given; [ ] = remark or other dose.

molecule	D2 agonist	TRPML1 ag	PINK1 modulator	Six1-Eya2 blk	D2 potentiator	CtBP-E1A blk
Nc1ncnc2c1ncn2[C@@H]1O[C@H](CNS(=O)(=O)c2ccc3c(c2)CCN(C(=O)C(F)(F)F)C3)[C@@H](O)[C@H]1O	-3.3	-0.5	-1.0%	-2	-5	2
O=C(NC(=S)Nc1ccc(Cl)c(C(=O)O)c1)c1ccco1	-2.9	-0.3	0.0%	1	-4	-3
Cc1cc(C)c2[nH]c3nc(SCC(=O)O)nnc3c2c1	-2.9	-0.6	-1.3%	-8	-23	·
COc1ccc(NC(=S)NNc2ccc([N+](=O)[O-])cc2S(=O)(=O)Nc2ccc(C)cc2C)cc1	-6.4	-0.2	?	?	-5	0
CCCN(CC(=O)Nc1ccccc1C)C(=O)CC(NC(=O)c1ccccc1)c1ccccc1 (stereo not drawn)	-4.4	0.4	4.8%	-1	-46	0
CCN(CC)CCCN(C(=O)c1ccco1)c1nc(-c2ccc(Cl)cc2)cs1	5.0	-0.6	-1.5%	-18	-21	-20
COc1ccc(CCC(=O)N2CCN(S(=O)(=O)c3cccc(Cl)c3)CC2)cc1	-1.0	3.3	-0.2%	0	-4	-14
O=[N+]([O-])c1ccc2nc(-c3ccncc3)[nH]c2c1	-0.8	-0.5	-0.2%	-1	-12	·
COc1cccc(-c2cc(C(F)(F)F)c(C#N)c(=O)[nH]2)c1	1.1	-0.3	-1.1%	4	-3	-1
O=c1nc2n(c3ncccc13)CCC2	-0.9	1.0	·	0	-6	0
CCOc1ccc(Oc2ccc(C(F)(F)F)cc2N)cc1	-1.2	0.5	2.5%	12	1	23
Cc1ccc(C2CC(c3cccs3)=NN2C(=O)CSC2=NN3CCCC(=O)N=C3S2)cc1 (stereo not drawn)	-3.0	-0.1	-1.0%	-4	-2	-1
O=C(NC1(C(F)(F)F)NC(=O)N(C2CCCCC2)C1=O)c1ccco1 (stereo not drawn)	2.0	-0.6	3.1%	12	-9	-20
COC(=O)CSc1nnc(COc2ccc([N+](=O)[O-])cc2)n1C	1.3	0.3	-0.6%	0	2	2
C/C(=N\Nc1nc(N)cc(Cl)n1)c1ccc(F)cc1	-3.1	0.2	2.7%	4	-7	·
COc1cc(C)c(Cl)cc1S(=O)(=O)NCC1CCCO1 (stereo not drawn)	-0.2	0.9	5.3%	0	6	5
O=C(CNC(=O)c1ccco1)N/N=C/c1c[nH]c2ccccc12	4.8	3.0	4.7%	-2	-9	-5
Cc1ccc(C)c(CN2C(=O)c3ccccc3S(=O)c3ccc(C(=O)N4CCN(c5ccccn5)CC4)cc32)c1 (stereo not drawn)	-1.6	-0.6	-0.1%	-9	-10	-7
Cc1cc2cc(CNC(=O)CC(C)C)ccc2n1C	-6.3	-1.2	0.2%	-2	-15	1
Cc1cccc(Nc2nc(N)c([N+](=O)[O-])c(N3CC(C)OC(C)C3)n2)c1 (stereo not drawn)	8.5	3.5	1.2%	-21	-5	-19
Cc1nc(-c2cnn(-c3ccccc3)c2)c2cc(C)oc2n1	-1.9	-0.9	6.9%	-87*	-2	-88*
CCCNC(=O)CN1CCN(c2cc3ccccc3c(Cl)n2)CC1	-1.0	2.3	1.3%	8	-8	10
O=C(NC1C(=O)NNC1c1ccccc1)c1ccccc1 (stereo not drawn)	-5.7	0.4	-0.5%	0	-11	0
COc1cc(OC)cc(-c2nc(-c3cc4cc(C)ccc4nc3OC)no2)c1	-2.3	0.1	-0.1%	8	1	5
CCOc1ccc(N2CC(C(=O)NC3CCCCCC3)CC2=O)cc1 (stereo not drawn)	-2.9	0.4	1.9%	-2	-4	-3
O=C(CN1CCN(c2ccccn2)CC1)Nc1cccc(C(F)(F)F)c1	2.2	0.7	0.7%	11	-10	-1
CN(C)Cc1cc(C(F)(F)F)ccc1C(O)(c1ccccc1)c1ccccc1	-3.0	0.6	7.4%	1	-17	-7
Cc1cc(C(=O)Nc2cccc(O)c2)c(C)o1	-1.4	0.1	5.4%[38.3 µM]	-5	-10	-4
COc1ccc(C#Cc2c(-c3ccccc3)n(-c3ccccc3)c3ccc(CO)cc23)cc1	-4.3	0.0	1.9%	4	-6	-4
O=C(NCc1ccco1)c1cccc(NS(=O)(=O)c2cccc(F)c2)c1	-1.1	0.3	2.2%	5	-12	21
O=C(O)c1nn(CC(=O)N2CCN(c3ncc(C(F)(F)F)cc3Cl)CC2)c(=O)c2ccccc12	4.4	5.0	2.8%	-14	2	-2
Nc1ccc(OCCc2ccccc2)cc1	-3.1	0.2	-1.4%	-15	-1	-9
COc1ccccc1CNc1ncccc1[N+](=O)[O-]	-8.8	-0.5	-1.0%	-13	-2	-16
CCOC(=O)Cn1c(=O)c2c(nc(N3CCCCC3)n2Cc2ccccc2)n(C)c1=O	-5.0	1.4	5.4%	-14	22	16
COc1ccc(C2C(C(=O)Nc3ccccc3)=C(C)Nc3nc(CCCO)nn32)cc1 (stereo not drawn)	-4.8	-0.5	-4.6%[38.3 µM]	1	-2	8
O=C(NCCc1ccc(Cl)cc1)c1ncn[nH]1	-4.1	0.5	-0.6%	-23	-8	-25
CC1CCCCC1NC(=O)COC(=O)c1ccc2c(=O)n3c(nc2c1)CCC3 (stereo not drawn)	1.0	-0.7	3.6%	1	1	9
Cc1cc(C)c(NC(=O)C2C3/C=C\CCCCC32)c(C)c1 (stereo not drawn)	-3.5	-0.3	-3.0%	-3	4	-8
O=C(NC(=S)N1CCN(c2ccccc2)CC1)c1ccco1	-13	0.7	-0.6%	-4	-9	0
CCOP(=O)(OCC)C(Nc1ccccc1)c1ccc2c(c1)OCO2 (stereo not drawn)	-2.2	-0.7	1.5%	4	-12	·

Copied from the list.
Value for `CCOC(=O)Cn1c(=O)c2c(nc(N3CCCCC3)n2Cc2ccccc2)n(C)c1=O` in D2 potentiator: 22
Value for `CC1CCCCC1NC(=O)COC(=O)c1ccc2c(=O)n3c(nc2c1)CCC3` (stereo not drawn) in D2 potentiator: 1
Value for `COc1ccccc1CNc1ncccc1[N+](=O)[O-]` in D2 potentiator: -2
Value for `COc1ccc(C2C(C(=O)Nc3ccccc3)=C(C)Nc3nc(CCCO)nn32)cc1` (stereo not drawn) in D2 potentiator: -2
Value for `Cc1cc(C)c(NC(=O)C2C3/C=C\CCCCC32)c(C)c1` (stereo not drawn) in PINK1 modulator: -3.0%

Not a retest: 2 of the compounds above.
molecule	D2 agonist	TRPML1 ag	PINK1 modulator	Six1-Eya2 blk	D2 potentiator	CtBP-E1A blk
COc1ccc(C2C(C(=O)Nc3ccccc3)=C(C)Nc3nc(CCCO)nn32)cc1 (stereo not drawn)	-4.8	-0.5	-4.6%[38.3 µM]	1	-2	8
O=C(NCCc1ccc(Cl)cc1)c1ncn[nH]1	-4.1	0.5	-0.6%	-23	-8	-25

Following part:
molecule	D2 agonist	TRPML1 ag	PINK1 modulator	Six1-Eya2 blk	D2 potentiator	CtBP-E1A blk
COc1ccc2c(c1)c(=O)cc(-c1ccccc1)n2C	-2.9	-0.6	1.5%	0	-15	2
COC(=O)c1ccccc1NC(=O)c1cncc(Br)c1	2.9	3.6	-1.6%[38.3 µM]	3	-4	0
COC(=O)c1c(C)[nH]c(C(=O)C(C)OC(=O)c2c(C)noc2C)c1C (stereo not drawn)	-5.1	0.4	0.8%	-2	-12	·
C#CCOCCOCCOCCNc1nc(N2CCOCC2)nc(N2CCN(C(=O)CCCCCCCCCCNC(=O)[C@@H]([C@H](C)CC)n3cc(CCCCCN)nn3)CC2)n1	-2.8	-0.8	-1.5%	-3	-14	0
O=C(NCc1cccnc1)c1ccccc1[N+](=O)[O-]	-5.2	0.2	-0.2%	16	-7	·
NC(=O)CCCCC(=O)OCCCc1cccs1	3.2	0.4	1.4%	1	-1	-5
Cc1ccc(S(=O)(=O)N2CCCc3ccccc32)cc1C	-2.8	2.2	0.6%	13	-10	9
CC(C)=C1C2CCC1C(C(=O)Nc1sc(C)c(-c3ccc(C(C)C)cc3)c1C(N)=O)C2C(=O)O (stereo not drawn)	-3.6	2.7	12%	-1	-2	4
CCC(C#CCN1CCCCC1)(CC)OCCC#N	-1.6	-0.4	3.4%	9	-50	1
COc1ccc(-n2nnc3c(=O)n(Cc4cccc(C)c4)cnc32)cc1	-1.2	0.6	0.9%[38.3 µM]	-9	-10	-10
O=[N+]([O-])c1c(C(Cl)Cl)nn(-c2ccccc2)c1N1CCOCC1	2.8	-0.7	3.1%	-20	-3	-14
COc1ccc(-n2c(C)cc(C(=O)COC(=O)Cc3n[nH]c(=O)c4ccccc34)c2C)cc1	-7.1	0.8	18%	-23	-22	5
C[C@@H]1CN([C@@H](C)CO)C(=O)CCCn2nncc2CO[C@H]1CN(C)S(=O)(=O)c1ccc(Oc2ccccc2)nc1	-3.9	0.1	4.0%	9	1	6
NS(=O)(=O)c1ccc(CNC(=O)COc2ccc3c4c(c(=O)oc3c2)CCCC4)cc1	-6.0	-0.2	20%	0	-6	-5
CCOC(=O)CC1CCCCN1C(=O)CCCn1nnnc1CN1CCC(C)CC1 (stereo not drawn)	-2.8	0.1	-2.0%	2	-9	19
CC(Oc1ccc(C#N)cc1)C(=O)N1CC=C(c2ccccc2)CC1 (stereo not drawn)	0.6	1.0	6.1%	3	-8	-2
CC(C)OC(=O)C(C#N)c1nc2ccccc2nc1N1CCCC1 (stereo not drawn)	-2.9	0.7	1.3%	-15	2	-20
Cc1cccn2c(=O)c3cc(C(=O)NC4CCS(=O)(=O)C4)n(Cc4ccccc4)c3nc12 (stereo not drawn)	3.1	-1.0	7.2%	10	-2	9
CCOc1ccc(C(C)=O)cc1COC(=O)CNC(=O)c1cccs1	-2.7	-0.6	-1.2%	-6	-1	6
CC(C)C(=O)Nc1ccc(NC(=O)c2ccc3c(c2)OCO3)cc1	-0.6	-0.1	4.9%	-15	0	·
c1ccc(Oc2ccc(-c3ccnc4nc(N5CCOCC5)nn34)cc2)cc1	2.3	5.2	-2.9%	9	1	0

Assay outcomes from PubChem BioAssay.
